Screening results: PubChem, National Center for Advancing Translational Sciences (NCATS)
Resorufin autofl: compound fluoresces in the resorufin spectral region; Compound fluorescence, resorufin region 547/598 nm, buffer; hits give high values; max dye-equivalent concentration, M; hit rate 0.04% among 59,000; AID 588; active = above 10 nM dye equivalent; inconclusive = 1 to 10 nM; inactive = 1 nM or less; a few of its hits are not listed in these tables; note: highest value over a series up to 38 µM
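Intrinsic fluorescence profiled in the resorufin window (ex 547 nm, em 598 nm) after 15 min at room temperature in pH 8.0 Tris buffer (100 mM); responses normalized against a six-point resorufin standard series as dye-equivalent concentration.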
A488 autofl: compound autofluorescence in A488 spectral region. max dye equivalency, M. AID 591. compound autofluorescence, A488 spectral region, dye equivalency; hits give high values. hit rate 0.1% among 59,000; active = above 10 nM dye equivalent; inconclusive = 1 to 10 nM; inactive = 1 nM or less; about half of its hits are not listed in these tables;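 note: highest value over a series up to 38 µM; compound alone in buffer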
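Intrinsic compound fluorescence is measured in 100 mM Tris buffer at pH 8.0 following 15 min incubation at room temperature. Intensities at 480 nm excitation/540 nm emission are calibrated to an on-plate A488 concentration series, giving dye-equivalent concentrations.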
A647 autofl: A647 region autofluorescence; Compound fluorescence, A647 channel (570/671 nm), Tris buffer; max dye-equivalent concentration, M; AID 592; 59,000 tested, under 10 active; active means above 1 µM dye equivalent; inconclusive means 0.1 to 1 µM; inactive means 0.1 µM or less;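 note: values scaled relative to a standard on each plate; highest value over a series up to 38 µM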
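Compound fluorescence was measured in 100 mM Tris buffer, pH 8.0, after 15 min at room temperature, using 570 nm excitation and 671 nm emission filters. Signal was normalized to a per-plate Alexa 647 standard curve and expressed as dye-equivalent concentration at each compound concentration.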
AID923: qHTS Assay for Allosteric/Competitive Inhibitors of Caspase-1: Spectroscopic Profiling in AFC Spectral Region | compound fluorescence, AFC spectral region (405/520 nm); almost no hit is shown here | Potency, µM (doses to about 57.5 µM), for the others: top-dose fluorescence increase, most hits filed as activators | hit rate 1.1% among 75,000; active = well fitted activation curve with a large enough effect; inconclusive = small, poorly fitted or top-dose-only effect;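 note: potency is the fitted concentration of half-maximal effect; 0% is about no effect; scaled to a free AFC standard on each plate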
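Titrations up to 57 uM read every 20 sec for 3 min (405/520 nm) with 50 nM caspase 1 and 5 uM Ac-WEHD-AFC, pH 7.5 HEPES buffer. Fluorescence-vs-time intercept gave baseline, scaled against on-plate AFC standard.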
TSHR ag: agonists of human thyroid stimulating hormone receptor. P16473. hit rate 0.48% among 73,000. AID 926. HEK293-CNG-TSHR cells (CNG channel as cAMP sensor), membrane potential dye, cAMP. Potency, µM (highest dose often 57.1 µM), without a hit: at the top dose activation, usual class: activators; active = well fitted activation curve of enough size with the parental cells flat; inconclusive = any curve in the parental cells; inactive = parental cells flat and receptor cells flat or falling; note: potency is the fitted concentration of half-maximal effect; % of control where 0% means no effect; weak receptor curves with flat parental cells got no call and are not listed
Target sequence (P16473 whole entry, looked up): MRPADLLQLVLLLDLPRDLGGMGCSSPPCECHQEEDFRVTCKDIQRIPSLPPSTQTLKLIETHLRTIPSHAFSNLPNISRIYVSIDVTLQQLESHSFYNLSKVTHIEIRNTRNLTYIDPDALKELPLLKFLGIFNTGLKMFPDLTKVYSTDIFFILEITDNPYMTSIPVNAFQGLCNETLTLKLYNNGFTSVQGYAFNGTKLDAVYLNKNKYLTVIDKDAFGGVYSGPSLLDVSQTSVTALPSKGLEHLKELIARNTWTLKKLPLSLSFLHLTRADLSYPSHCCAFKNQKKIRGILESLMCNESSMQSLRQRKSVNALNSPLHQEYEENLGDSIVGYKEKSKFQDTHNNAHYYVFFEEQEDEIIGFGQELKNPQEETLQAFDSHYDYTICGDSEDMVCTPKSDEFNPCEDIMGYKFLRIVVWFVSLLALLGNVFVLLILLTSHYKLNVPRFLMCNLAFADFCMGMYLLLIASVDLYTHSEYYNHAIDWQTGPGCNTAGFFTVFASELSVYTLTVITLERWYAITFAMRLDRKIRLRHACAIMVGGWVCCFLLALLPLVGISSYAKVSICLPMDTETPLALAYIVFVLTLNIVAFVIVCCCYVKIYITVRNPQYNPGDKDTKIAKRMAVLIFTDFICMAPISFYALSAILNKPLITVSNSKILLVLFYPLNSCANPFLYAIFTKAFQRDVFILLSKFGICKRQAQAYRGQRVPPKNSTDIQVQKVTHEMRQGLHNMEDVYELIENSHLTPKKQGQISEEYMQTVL
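HEK 293 cells stably expressing TSHR and a cAMP-gated CNG channel; parental CNG-only cells as counterscreen. Cells preloaded 60 min with membrane potential dye plus 100 uM RO 20-1724, then compound 30 min; fluorescence read at 590 nm.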
Starred values were filed as active, the others as inactive; & = joins results of further samples; [ ] = dose if it differs, or a comment. This is a subset; rates above refer to the full screens.

Screening CCCCOC(=O)C(C#N)c1nc2ccccc2nc1N1CCN(Cc2ccc3c(c2)OCO3)CC1 (stereo not given) returned Resorufin autofl inactive, A488 autofl inactive, A647 autofl 5.3e-09, AID923 4.9% and TSHR ag inconclusive.
For COc1cccc(-c2csc3nnc(SCC(=O)c4ccc(NC(C)=O)cc4)n23)c1 the results were Resorufin autofl inactive, A488 autofl inactive, A647 autofl 1.1e-08, AID923 -1.1% and TSHR ag 9%.
`C=CCN1C(=O)CN=C1Nc1cc(C)cc(C)c1` gave Resorufin autofl inactive, A488 autofl inactive, A647 autofl 5.9e-09, AID923 -0.9% and TSHR ag -9%.
For O=C(COC(=O)c1ccco1)NCC1CCCO1 (stereo not given) the results were Resorufin autofl inactive, A488 autofl inactive, A647 autofl 3.7e-09 and AID923 0.7%.
c1csc(Cn2c(-c3cccs3)nc3ccccc32)c1 was read as Resorufin autofl inactive, A488 autofl inactive, A647 autofl 1e-09, AID923 1.9% and TSHR ag inconclusive.
For COc1ccc(OCC(=O)N2CCN(C(=O)COc3ccc(Br)cc3)CC2)cc1 the results were Resorufin autofl inactive, A488 autofl inactive, A647 autofl 1.2e-08, AID923 -0.2% and TSHR ag 8%.
Screening Cc1onc(-c2ccccc2)c1C(=O)NC(C)C1CCCO1 (stereo not given) returned Resorufin autofl inactive, A488 autofl inactive, A647 autofl 1e-09, AID923 3.0% and TSHR ag 8%.
For Cc1c(CNC(=O)c2cnn3c2NC(c2ccccc2)CC3C(F)(F)F)cnn1C (stereo not given) the results were Resorufin autofl inactive, A488 autofl inactive, A647 autofl 1e-09, AID923 1.5% and TSHR ag -5%.
Screening CCCn1c(SCC(=O)N2CCCc3ccccc32)nnc1-c1ccco1 returned Resorufin autofl inactive, A488 autofl inactive, A647 autofl 2.7e-08, AID923 -1.9% and TSHR ag 8%.
Screening O=C(Nc1ccon1)c1ccc(Br)o1 returned Resorufin autofl inactive, A488 autofl inactive, A647 autofl 8.3e-09, AID923 -2.0% and TSHR ag -13%.
For O=C(NCc1cccnc1)C1CCCN(S(=O)(=O)c2ccc(Cl)cc2)C1 (stereo not given) the results were Resorufin autofl inactive, A488 autofl inactive, A647 autofl 4.2e-08, AID923 0.1% and TSHR ag 1%.
For Cc1cc(C)cc(OCC(=O)Nc2cccc(-c3nc4ncccc4o3)c2)c1 the results were AID923 -0.2% and TSHR ag 13%.
For CC1Cc2nc(SCC(N)=O)n(C)c(=O)c2S1 (stereo not given) the results were AID923 6.6% and TSHR ag 1%.
CC1CCN(c2[nH]c(=S)c(C#N)c3c2CCCC3)CC1 was read as Resorufin autofl inactive, A488 autofl inactive and A647 autofl 4.5e-09.
CCOC(=O)Cc1csc(NC(=O)c2cccs2)n1 was read as Resorufin autofl inactive, A488 autofl inactive, A647 autofl 2e-09, AID923 -0.6% and TSHR ag 1%.
`CCn1cc(C(=O)NCCCOC)c(=O)c2cc(S(=O)(=O)N(C)C)ccc21` gave AID923 0.7% and TSHR ag -1%.
Screening Cc1nnc(SCC(=O)N(C(C)C)C(C)C)nc1C returned Resorufin autofl inactive, A488 autofl inactive, A647 autofl 6.7e-09, AID923 1.0% and TSHR ag 2%.
Screening CCCn1nnnc1SCC(=O)NCc1ccc2c(c1)OCO2 returned Resorufin autofl inactive, A488 autofl inactive, A647 autofl 2.2e-08, AID923 -1.1% and TSHR ag 1%.
For Cc1nnc(NC(=O)CSc2cn(CCNC(=O)c3ccccc3)c3ccccc23)s1 the results were AID923 -4.2% and TSHR ag -4%.
For COc1ccc(OC)c(S(=O)(=O)Nc2ccccc2C(=O)O)c1 the results were Resorufin autofl inactive, A488 autofl inactive, A647 autofl 2.7e-08, AID923 1.9% and TSHR ag 0%.
O=C1Nc2ccc(S(=O)(=O)N3CCCC3)c3ccc(S(=O)(=O)N4CCCC4)c1c23 was read as Resorufin autofl inactive, A488 autofl inactive, A647 autofl 1e-09, AID923 2.8% and TSHR ag -4%.
`CSC1=NCCN1C(=O)COc1ccc2ccccc2c1` gave AID923 2.3% and TSHR ag 4%.
Screening COCCNC(=O)CS(=O)(=O)Cc1nc(-c2ccc(C)cc2)oc1C returned AID923 1.4% and TSHR ag 21%.
For CN1[C@@H]2CC[C@H]1CC(OC(c1ccccc1)c1ccccc1)C2 (stereo not given in full) the results were Resorufin autofl inactive, A488 autofl inactive, A647 autofl 6.2e-08&1e-09, AID923 -3.1%[11.5 µM] and TSHR ag 5%[11.4 µM].
For COc1ccc(C(=O)Nc2c(F)c(F)c(F)c(F)c2F)c(OC)c1 the results were AID923 0.1% and TSHR ag 13%.
Cc1ccc2cc(C)c3nnc(SCC(=O)NCc4ccco4)n3c2c1 was read as Resorufin autofl inactive, A488 autofl inactive, A647 autofl 4e-08, AID923 0.3% and TSHR ag -9%.
Screening CCc1cc2c(=O)c(-c3cscn3)coc2cc1OC returned Resorufin autofl inactive, A488 autofl inactive, A647 autofl 1e-09, AID923 0.7% and TSHR ag -1%.
For CCOc1cc(C(=O)CSc2nnc(CNc3ccc(Cl)cc3)o2)ccc1NC(=O)CC the results were Resorufin autofl inactive, A488 autofl inactive, A647 autofl 7.1e-09, AID923 -0.6% and TSHR ag inconclusive.
Screening COc1ncc2ncc(=O)n(CCC#N)c2n1 returned Resorufin autofl inactive, A488 autofl inactive, A647 autofl 1.9e-08, AID923 -0.3% and TSHR ag 2%.
O=C1c2ccccc2-c2onc3ccc(NCCCn4ccnc4)c1c23 was read as Resorufin autofl 6.5e-07M*, A488 autofl 2.6e-07M*, A647 autofl 5.1e-08, AID923 11% and TSHR ag -33%[inhibitor].
Screening COc1ccc(NC(=O)CCCC(=O)OCC(F)(F)C(F)F)cc1 returned AID923 2.9% and TSHR ag 0%.
Screening CCOc1ccc2nc(N3CCC(C(=O)Nc4nnc(CC)s4)CC3)sc2c1 returned AID923 0.8% and TSHR ag -10%.
`O=C(O)c1ccccc1NS(=O)(=O)c1ccc(F)c(Cl)c1` gave AID923 -1.3% and TSHR ag -5%.
For CCOC(=O)N1CCN(c2cc(C)c(C(C)=O)cc2F)CC1 the results were Resorufin autofl inactive, A488 autofl inactive, A647 autofl 4.5e-08, AID923 1.9% and TSHR ag 1%.
CC(C)(C)Sc1ccc(N)nc1 was read as Resorufin autofl inactive, A488 autofl inactive, A647 autofl 3.7e-08, AID923 1.6% and TSHR ag -1%.
For Cc1ccc(-n2cccc2C(=S)N=P(N(C)C)(N(C)C)N(C)C)cc1 the results were Resorufin autofl inactive, A488 autofl inactive, A647 autofl 1e-09, AID923 -0.1% and TSHR ag inconclusive.
For O=C1/C(=C/Nc2ccc3c(c2)OCO3)CCc2ccccc21 the results were AID923 13% and TSHR ag -16%.
COc1cc2c(C(=O)NCCCN3CCN(c4cccc(Cl)c4)CC3)cn(C)c(=O)c2cc1OC was read as Resorufin autofl inactive, A488 autofl inactive, A647 autofl 3e-08, AID923 -0.5% and TSHR ag 4%.
For O=c1c(-c2cccc(F)c2)nc2cncnc2n1Cc1ccccc1 the results were Resorufin autofl inactive, A488 autofl inactive, A647 autofl 2.8e-08, AID923 3.9% and TSHR ag -17%.
`COCCn1c(C)cc(C(=O)CSc2ncn[nH]2)c1C` gave Resorufin autofl inactive, A488 autofl inactive, A647 autofl 1e-09, AID923 -0.9% and TSHR ag 3%.

Structural class, the compounds so far containing an NH in an aromatic ring
CC1CCN(c2[nH]c(=S)c(C#N)c3c2CCCC3)CC1 was read as Resorufin autofl inactive, A488 autofl inactive and A647 autofl 4.5e-09.
`COCCn1c(C)cc(C(=O)CSc2ncn[nH]2)c1C` gave Resorufin autofl inactive, A488 autofl inactive, A647 autofl 1e-09, AID923 -0.9% and TSHR ag 3%.

Continuation:
COc1cccc(NC(=O)CSc2nnc(CNC(=O)c3ccccc3)n2C)c1 was read as Resorufin autofl inactive, A488 autofl inactive, A647 autofl 3e-08, AID923 -1.2% and TSHR ag 10%.
Screening O=C(NCC1CCCO1)C1CCC(CNS(=O)(=O)c2ccccc2)CC1 (stereo not given) returned Resorufin autofl inactive, A488 autofl inactive, A647 autofl 1e-09, AID923 -0.1% and TSHR ag 10%[11.4 µM].
COC(=O)C1=C(C)N(Cc2ccccc2)C2=C3C(=O)OCCC3[C@@](O)(C(=O)OC)C(=O)N2C1c1ccccc1 (stereo not given in full) was read as AID923 -1.5%[11.5 µM] and TSHR ag 5%[11.4 µM].
CCC1=Nc2ccccc2NC2=C1C(=O)CCC2 was read as Resorufin autofl inactive, A488 autofl inactive and A647 autofl 1e-09.
`COc1ccc(-c2nc(=S)c3c(n2CCN2CCOCC2)CC(C)(C)OC3)cc1` gave Resorufin autofl inactive, A488 autofl inactive, A647 autofl 2.7e-08, AID923 -0.2% and TSHR ag 5%.
For O=c1cc(-c2ccccc2)[nH]c2ccccc12 the results were Resorufin autofl inactive, A488 autofl inactive, A647 autofl 2.8e-08, AID923 1.0% and TSHR ag 6%.
For CCC/C=C(\CCC)C(NC(=O)c1ccc(C(=O)OC)cc1)c1ccc(C(=O)OC)cc1 (stereo not given) the results were AID923 1.7% and TSHR ag inconclusive.
`CCSc1ccccc1C(=O)N1CCN(Cc2ccc3c(c2)OCO3)CC1` gave Resorufin autofl inactive, A488 autofl inactive, A647 autofl 1.1e-08, AID923 -1.0% and TSHR ag 18%.
`Cc1nc2sc(C)c(C)c2c(=O)[nH]1` gave Resorufin autofl inactive, A488 autofl inactive, A647 autofl 1e-09, AID923 0.4% and TSHR ag 7%.
CCCS(=O)(=O)c1c(S(=O)(=O)CCC)c2cnccn2c1C(=O)c1ccc(F)cc1 was read as Resorufin autofl inactive, A488 autofl inactive, A647 autofl 1.7e-09, AID923 -2.1% and TSHR ag 4%.
Screening CCOC(=O)c1ccc(NC(=O)CN2CCN(CCN=CC3=C(O)CC(C)(C)CC3=O)CC2)cc1 returned Resorufin autofl inactive, A488 autofl inactive, A647 autofl 2.8e-08, AID923 0.0% and TSHR ag 12%.
O=C(NCCN1CCN(C(=O)c2cccs2)CC1)c1cccs1 was read as Resorufin autofl inactive, A488 autofl inactive, A647 autofl 1e-09 and AID923 -1.9%.
Screening COc1ccc(N2C(=O)CC(N3CCC(C(N)=O)CC3)C2=O)cc1 (stereo not given) returned Resorufin autofl inactive, A488 autofl inactive, A647 autofl 2.8e-08, AID923 -0.6% and TSHR ag 3%.
O=c1c2cc3c(cc2[nH]c(=S)n1Cc1ccco1)OCO3 was read as Resorufin autofl inactive, A488 autofl inactive, A647 autofl 8.5e-09, AID923 -0.3% and TSHR ag 0%.
`COc1ccccc1-n1cnc2cc(NCc3ccco3)ccc21` gave Resorufin autofl inactive, A488 autofl inactive, A647 autofl 4.6e-09, AID923 -1.0% and TSHR ag 8%.
CC1(C)Nc2ccccc2N(CC(=O)N2CCCCC2)C1=O was read as AID923 5.1% and TSHR ag 3%.
For COC(=O)C1Cc2c([nH]c3ccccc23)CN1 (stereo not given) the results were Resorufin autofl inactive, A488 autofl inactive, A647 autofl 4.4e-08, AID923 2.8% and TSHR ag -2%[11.4 µM].
`Cc1cccc2cc(CN(CCN3CCOCC3)C(=O)Nc3ccccc3F)c(=O)[nH]c12` gave Resorufin autofl inactive, A488 autofl inactive, A647 autofl 1e-09, AID923 1.0% and TSHR ag 9%.
Screening CC1(C)C2CCC1(C)C(OC(=O)CC(=O)O)C2 (stereo not given) returned Resorufin autofl inactive, A488 autofl inactive and A647 autofl 4.5e-08.
For COC(=O)c1oc2ccc(Br)cc2c1NC(=O)CCCN1C(=O)c2ccccc2C1=O the results were AID923 2.0% and TSHR ag -1%.
`COc1cccc(Cn2nnc(C(=O)Nc3ccc(C)cc3)c2N)c1` gave AID923 0.7% and TSHR ag 0%.
